Screening results (PubChem BioAssay)
Ecoli rRNA inh – inhibitors of bacterial rRNA selective over humanized ribosomes; actives 1.6% (n = 350,000); E. coli WT GFP vs humanized-ribosome RFP mutants, fluorescence, 24 h; hits give low values; DMSO median 0, no signal -100; GFP signal change (wild-type ribosome), % (concentration not given with the values);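 active = significant combined selectivity score with lowered wild-type GFP, culture density cut under 30%, mutant RFP and density less affected; inactive = any of these conditions unmet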; note: one replicate is shown; some compounds called inactive have numbers as strong as hits
Beta cell apopt – blocks beta cell apoptosis | protection from apoptosis, % (no concentration beside the values) | actives 0.8% (n = 300,000) | INS-1E cytokine-induced death, ATP luminescence, 48 h; percent of positive-control rescue, neutral wells zero;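 active = all replicates at 75% or more, or half of them and the mean; inconclusive = half reach 75% but not the mean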;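 note: 0% = cytokine-treated negative control wells and 100% = positive control rescue; higher means more ATP so stronger rescue from cytokine killing; wells of about 40 µL received 100 nL stock; the first replicate is given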
LANA-H2B inh – blocks KSHV LANA binding to histone H2A/H2B; inhibition, % (no concentration beside the values); Q9QR71; actives 0.6% (n = 320,000); AID 2629; cell-free LANA-H2A/H2B peptide, fluorescence polarization; in the data active = inhibition mostly above about 10%, no sharp cut-off; inactive = mostly below about 6.7%;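 note: stock transfer was 7.5 nL into about 10 µL; 0% = median of vehicle wells and 100% = median of positive control wells; one replicate is shown; the record names a cut of 25% in any replicate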
ALR H2O2 inh – blocks human ALR sulfhydryl oxidase activity; P55789; purified ALR, DTT oxidation, H2O2 HRP-luminol luminescence; inhibition, % (concentration not given with the values); actives 3.8% (n = 290,000);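 active = mean and each replicate at 75% or more; inconclusive = only one of the two met; inactive = neither met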;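 note: stock transfer was 7.5 nL into about 7.5 µL; 0% = neutral wells and 100% = wells with inactivated enzyme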
Target sequence (P55789 whole entry, looked up): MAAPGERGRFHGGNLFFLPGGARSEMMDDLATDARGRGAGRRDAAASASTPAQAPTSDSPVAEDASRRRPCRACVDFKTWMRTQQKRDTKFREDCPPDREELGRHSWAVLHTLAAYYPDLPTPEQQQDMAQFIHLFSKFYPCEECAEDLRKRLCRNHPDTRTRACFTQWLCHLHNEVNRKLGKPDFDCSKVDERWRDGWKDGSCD
Calb FLC – affects C. albicans growth with fluconazole. AID 1979. growth inhibition, % (concentration not given with the values). actives 0.57% (n = 300,000). C. albicans CaCi-2 (fluconazole-resistant clinical isolate) + fluconazole, Alamar Blue growth, 48 h;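 active = most replicates above 75%; inconclusive = exactly half above 75%; inactive = most below 75%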;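 note: all wells also contain fluconazole at 8 µg/ml as a sub-toxic cotreatment; 0% = median of DMSO wells and 100% = median of geldanamycin control wells; wells of about 8 µL received 7.5 nL stock; the first replicate is given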
T cruzi inh – blocks replication of Trypanosoma cruzi; T. cruzi beta-gal in NIH3T3, luminescence, 90 h; inhibition, % (concentration not given with the values); actives 1.4% (n = 300,000); AID 1885;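 active = mean inhibition across valid replicates above about 55%, limit read from the data; inconclusive = mean below that limit but half or more replicates reach it; inactive = mean below it, under half of replicates reach it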;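 note: signal also drops with host cell toxicity which is not excluded here; 0% = plate median of DMSO wells and 100% = zero luminescence signal; higher percent means less beta-gal luminescence so fewer parasites; stock transfer was 50 nL into about 50 µL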
Bfl-1 A1 inh – inhibitors of the anti-apoptotic protein A1, read as caspase activation | MEF A1-2A-BIM cells, Caspase-Glo 3/7 luminescence, 3 h; percent of clofoctol response, vehicle zero | actives 0.066% (n = 330,000) | caspase activation, % (concentration not given with the values);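 active = over half of replicate activation scores above 10%, or exactly half above 10 with the replicate mean above 10; inconclusive = replicate mean below 10 yet half the replicates above 10; inactive = over half of replicates below 10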;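 note: wells of about 30 µL received 50 nL stock; many hits fall short of the cut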
Beta2AR agonist – activates human beta-2 adrenergic receptor causing internalization | P07550 | Am2.2-beta2AR cells, FAP receptor internalization, flow cytometry; reference of the scale not given here | response, % (no concentration beside the values) | actives 0.43% (n = 340,000) | AID 504454;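 active = response above a set limit, near 3 SD of response in nonfluorescent compounds, cut at about 42% in these data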;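 note: stock transfer was 100 nL into about 11 µL; a reference agonist was the positive control; negative values mostly stem from fluorescent compounds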
Target sequence (P07550 whole entry, looked up): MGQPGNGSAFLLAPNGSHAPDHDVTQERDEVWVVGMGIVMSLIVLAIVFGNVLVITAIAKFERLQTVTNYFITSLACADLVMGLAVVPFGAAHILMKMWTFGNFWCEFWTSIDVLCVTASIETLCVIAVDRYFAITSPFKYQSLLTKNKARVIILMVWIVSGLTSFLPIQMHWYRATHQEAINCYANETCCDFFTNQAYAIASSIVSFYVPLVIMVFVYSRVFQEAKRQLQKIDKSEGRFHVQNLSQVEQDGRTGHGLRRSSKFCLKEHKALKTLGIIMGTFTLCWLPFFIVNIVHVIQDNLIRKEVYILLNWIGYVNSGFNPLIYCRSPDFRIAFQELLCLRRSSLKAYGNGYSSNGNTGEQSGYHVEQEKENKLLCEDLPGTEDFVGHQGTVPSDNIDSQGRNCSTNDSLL
Ecoli rRNA inh OD600 – also measured in Ecoli rRNA inh; calls as there; OD600 change, %; measured here: OD600 growth;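 optical density of the mix in the first replicate; 0 = DMSO median and -100 = no signal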
Ecoli rRNA inh RFP – further read-out of Ecoli rRNA inh, marked with its call; RFP signal change, %; measured here: RFP humanized mutant strains;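 first replicate; 0 = DMSO median and -100 = no signal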
Numbers without * were called inactive; ? = inconclusive; · = no result given; & = joins results of further samples; ! = a repeat was not active.

The line under a structure holds: Ecoli rRNA inh	Ecoli rRNA inh OD600	Ecoli rRNA inh RFP	Beta cell apopt	LANA-H2B inh	ALR H2O2 inh	Calb FLC	T cruzi inh	Bfl-1 A1 inh	Beta2AR agonist
COc1cc(NC(=O)CCS(=O)(=O)c2ccc3c(c2)oc(=O)n3C)cc(OC)c1OC
 : 9.2	2.5	-0.2	-3.2	-5.6	-14.3	2.8	-11.4	0.4	15.2
CCN(CC)c1ccc(C(=S)NC2CCCCC2)cc1
 : -20.6*	-9.8*	-2.9*	10.6	2.7	·	-6.9	35.7	0.3	3.3
CCOc1ccc(NC(=O)Cn2cc(C(=O)C3CC3)c3ccccc32)cc1
 : 1.0	-2.5	-1.7	3.2	5.7	·	-7.8	-6.0	0.9	1.5
c1ccc(COc2ccccc2CNCc2cccnc2)cc1
 : ·	·	·	-3.9	4.6	-0.4	-0.7	69.7*	0.0	-9.3
CC(=O)c1ccc(Oc2cc(C)nc(NCc3ccccc3)n2)cc1
 : ·	·	·	14.5	-4.9	-1.2	-4.9	-1.1	-1.1	-20.2
COc1cc(NC(=O)C2CCCN(S(=O)(=O)c3ccc4[nH]c(=O)ccc4c3)C2)cc(OC)c1 (stereo not drawn)
 : 11.0	8.4	1.0	-3.4	-5.5	-4.5	-4.3	4.4	-0.6	6.9
CC(C)(C)OC(=O)CNC(=O)c1[nH]cnc1C(=O)N[C@@H](CCCCNC(=O)OC(C)(C)C)C(=O)OC(C)(C)C
 : 16.0	10.0	14.2	2.4	-2.0	-21.2	7.9	-9.1	-0.6	1.9
O=C(c1ccccc1)N1CCN(C(=O)c2ccncc2)CC1
 : ·	·	·	-1.1	3.6	-18.1	13.2	3.0	-0.9	4.0
O=C(CN1CCN(c2ncc(C(F)(F)F)cc2Cl)CC1)N1CCN(c2ncc(C(F)(F)F)cc2Cl)CC1
 : -4.9	-14.9	3.4	15.9	-2.1	·	3.2	44.2	0.1	-5.7
CC(=O)/C=N/Nc1ccccc1
 : ·	·	·	1.9	1.1	-6.4	-59.3	3.1	1.3	-1.7
CN(C)c1ccnc(-n2cccc2/C=N/O)c1C#N
 : 12.9	5.9	-0.2	-4.9	-0.3	-18.3	-23.9	-18.2	-1.4	6.7
O=C(Nc1ccc(Cl)cc1F)C1CC1
 : ·	·	·	0.9	2.0	-5.7	-10.4	-20.2	1.2	11.1
O=C(CNC(=O)c1ccco1)N/N=C/c1ccc(O)c([N+](=O)[O-])c1
 : 2.3	0.5	-3.3	-2.7	2.8	-11.3	13.7	3.3	-0.2	4.1
CCCN1CCC(NC(=O)Nc2ccc([N+](=O)[O-])cc2)CC1
 : 1.6	0.4	-6.5	1.5	0.7	-23.9	37.8	51.2	-0.3	7.1
N/C(Cc1cccs1)=N\OC(=O)COc1ccc(Cl)cc1Cl
 : ·	·	·	-1.6	-0.8	2.4	6.0	14.2	-0.5	9.5
OCc1ccccc1CN1CCCCCC1
 : 19.7	5.9	1.1	-1.8	-0.1	3.4	-1.1	-10.0	1.3	3.6
COc1ccc2cc(C3=CCCCC3)ncc2c1
 : -2.1	-7.5	-3.6	1.1	-1.4	-23.3	·	·	-13.1	-5.2
CC(C(=O)NC(C)(C)C)N(C(=O)CS(=O)CC(=O)Nc1ccc(F)cc1)c1ccccc1F (stereo not drawn)
 : 3.2	5.9	-4.7	-1.9	-3.3	-8.6	-10.3	-8.1	-2.1	6.9
Clc1ccc(/C=N/N2CCCCC2)cc1
 : 3.8	1.9	-1.1	-2.3	3.4	-1.4	3.9	-2.6	-4.7	3.1
CC(C)OC(=O)C[N+](C)(C)CCN1C(=O)C2C(c3ccccc3)C=CC(c3ccccc3)C2C1=O (stereo not drawn)
 : -34.5*	-2.3*	11.7*	-12.4	-4.2	2.4	-4.5	3.3	0.4	3.7
COc1cc2sc(NC(=O)c3ccco3)nc2cc1Cl
 : 9.2	2.9	-2.8	0.1	-6.4	-9.7	-6.0	-6.8	-3.5	-6.0
CCc1cc(=O)[nH]c(SCc2cccc3ccccc23)n1
 : ·	·	·	-1.5	10.9	97.9*	0.1	-10.3	0.3	6.4
O=c1oc2ccccc2c(NCc2ccc(Cl)cc2)c1[N+](=O)[O-]
 : -38.7*	-20.9*	-7.4*	-19.3	-0.4	0.8	-0.8	-0.9	0.2	6.3
CC1(C(=O)N2CC3(CC(c4cccc(NC(=O)COc5ccc(Cl)cc5)c4)=NO3)C[C@@H]2C(N)=O)CC1 (stereo partly drawn)
 : -7.7	-2.0	-2.6	-1.5	4.4	-1.4	-6.2	21.1	0.6	7.3
O=c1c2cc(Cl)ccc2nc(-c2ccccc2Cl)n1O
 : -33.2	-52.8	-8.4	-1.0	-2.4	-3.4	-5.4	-11.2	-0.3	0.1
CN(Cc1ncc[nH]1)C(=O)c1cc(COc2c(F)cccc2F)on1
 : 3.8	-2.0	0.5	0.5	1.7	-4.1	-0.4	-0.8	0.1	-5.3
CC(=O)Nc1nc(C)c(-c2csc(Nc3ccccn3)n2)s1
 : -20.4*!	-6.1*!	0.9*!	-2.0&-7.6	-3.4&-2.9	?	?	-7.3&20.9	-7.1&0.3	-3.3&-0.4
COc1ccc(NC(C)=O)cc1NC(C)C(=O)Nc1cccc(S(=O)(=O)N2CCOCC2)c1 (stereo not drawn)
 : 17.1	4.1	5.1	-1.9	-4.2	5.5	·	·	0.2	-6.5
N=c1c2ccccc2nnn1-c1ccc(C(F)(F)F)cc1
 : 17.0	13.9	-0.5	9.1	2.0	-5.6	0.1	-2.5	1.2	12.8
CC(=O)Nc1ccc(C(=O)Nc2ccc3c(c2)OCO3)cc1
 : 2.3	6.7	3.4	0.3	2.3	-31.4	12.9	-4.9	-0.1	0.1
Nc1cc([N+](=O)[O-])cc2oc(-c3ccccc3)cc12
 : -3.9	6.8	0.7	-0.4	-0.9	-0.1	-11.0	5.6	-0.9	-9.0
CCn1c2ccccc2c2cc(NC(=O)C(C)Oc3ccccc3)ccc21 (stereo not drawn)
 : -0.8	4.2	1.3	3.5	-2.3	-0.6	-15.1	39.6	0.2	2.7
CCCC(C(=O)NCCc1ccc(S(N)(=O)=O)cc1)c1ccccc1 (stereo not drawn)
 : 12.8	16.4	1.6	-4.4	-8.2	5.4	0.6	2.6	0.7	4.9
CCc1ccc(C(=O)N2CCN(c3ccc(NC(=O)c4ccco4)cc3)CC2)cc1
 : -3.2	0.1	0.1	-9.3	8.8	4.2	·	-0.3	0.3	-12.3
COc1ccc(S(=O)(=O)Nc2c(C)nc3nc[nH]n3c2=O)cc1
 : 6.9	-0.5	0.9	-4.3	-1.8	3.8	-0.4	-13.1	0.6	0.6
O=C(CCN1C(=O)C2C3C=CC(C3)C2C1=O)NC1CCCCC1 (stereo not drawn)
 : 0.4	16.8	-0.4	-0.3	1.2	-6.1	-3.0	-13.1	0.8	-2.0
Cc1c(N=Cc2nc3ccccc3[nH]2)c(=O)n(-c2ccccc2)n1C
 : ·	·	·	1.4	3.1	-10.1	-1.3	11.6	0.0	-11.3
Cc1ncc(CN2CCC(C(=O)Nc3ccc(-n4cccn4)cc3)CC2)s1
 : 12.4	-0.3	0.7	1.7	6.8	-7.8	7.0	11.4	-0.5	23.7
COc1ccc(OCc2cc(C(=O)N3CCOCC3)no2)c(Cl)c1
 : 0.9	5.9	0.6	-4.4	-1.8	-0.5	11.7	13.9	0.2	8.8
COc1ccc(OC)c(CNC(=O)Cn2nc(C)c3c(C)n(-c4ccc(C)cc4)nc3c2=O)c1
 : 13.7	11.4	6.7	16.9	0.5	·	-11.8	14.0	-0.2	9.3
Cc1sc2nc(SCC(=O)O)[nH]c(=O)c2c1C
 : 17.1	13.8	2.8	-2.3	-2.0	6.7	-22.4	-5.8	2.5	-5.0
C=CCOc1cccc(C(=O)Nc2ncn[nH]2)c1
 : 0.2	4.4	-2.0	-0.7	-3.2	2.9	-1.1	-6.6	1.6	-3.9
CCCc1cc(=O)[nH]c(SCCN2C(=O)c3ccccc3C2=O)n1
 : -1.4	-7.9	-4.5	0.2	2.2	3.1	?	0.4	1.0	-12.7
Cc1csc(NC(=O)C2CCCCC2)n1
 : ·	·	·	-7.5	4.2	-4.9	-5.2	-7.9	-0.6	-4.9
O=C(O)Cc1ccc2oc(-c3cccnc3)nc2c1
 : 0.1	5.3	-2.0	-3.9	0.9	1.0	1.4	2.7	-1.3	4.0
CC(Oc1ccc(Br)cc1)C(=O)NCCCN1CCCC1=O (stereo not drawn)
 : 10.6	0.2	0.5	-4.5	3.1	-0.8	·	·	0.1	-0.8
CCOC(=O)/C=C/[C@H]1Cc2ccccc2CO1
 : -1.0	11.6	-1.3	2.6	-1.5	1.7	·	·	-0.1	0.7
CCCC[C@@H]1CNC(=O)C(=O)N1CCc1cc(C(F)(F)F)cc(C(F)(F)F)c1
 : -5.3	-40.8	5.4	-4.5	0.4	-23.7	-4.7	-5.9	0.3	-9.6
Cc1nc2c(C#N)c[nH]n2c(=O)c1Cc1ccccc1
 : -22.0*	-11.0*	-5.7*	-3.5	-7.6	5.6	2.6	-6.8	0.8	-7.0
N#Cc1cc2c(nc1SCC(O)CS(=O)(=O)Cc1ccc(Cl)cc1)CCCC2 (stereo not drawn)
 : ·	·	·	5.8	-2.2	-2.1	24.3	42.9	1.8	-2.6
C=CCn1c(C)csc1=Nc1ccc(C(C)=O)cc1
 : 12.9	1.7	1.8	-7.8	-0.6	16.2	14.7	-0.8	0.5	-0.6
COc1ccccc1-n1nc(C(=O)O)c2ccccc2c1=O
 : ·	·	·	-4.9	3.2	-8.7	16.5	-12.7	0.7	0.3
COc1ccc(Br)cc1S(=O)(=O)N1CCCc2ccccc21
 : -20.9	-34.0	-13.9	2.1	-2.7	-10.5	10.0	8.7	0.6	-4.8
CCOC(=O)CNc1c(N2CCN(c3ccccn3)CC2)c(=O)c1=O
 : 10.6	11.0	0.5	·	-3.9	-15.5	5.5	-8.1	0.1	1.0
CCOc1cc(NC(=S)NCCOC)c(OCC)cc1NC(=O)c1cccs1
 : 3.8	8.1	-2.0	-2.8	3.0	-2.0	18.9	7.8	-0.3	·

These rows are one share of the data; rates above refer to the full screens.
